# Screens: PubChem, several laboratories
# LANA-H2A inh – blocks KSHV LANA binding to histone H2A/H2B. 320,000 compounds, 0.6% hits. cell-free LANA-H2A/H2B peptide, fluorescence polarization. Q9QR71. inhibition, % (concentration not given with the values); in the data active = inhibition mostly above about 10%, no sharp cut-off; inactive = mostly below about 6.7%;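 note: stock transfer was 7.5 nL into about 10 µL; 0% = median of vehicle wells and 100% = median of positive control wells; one replicate is shown; the record names a cut of 25% in any replicate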
# Target sequence (Q9QR71 whole entry, looked up): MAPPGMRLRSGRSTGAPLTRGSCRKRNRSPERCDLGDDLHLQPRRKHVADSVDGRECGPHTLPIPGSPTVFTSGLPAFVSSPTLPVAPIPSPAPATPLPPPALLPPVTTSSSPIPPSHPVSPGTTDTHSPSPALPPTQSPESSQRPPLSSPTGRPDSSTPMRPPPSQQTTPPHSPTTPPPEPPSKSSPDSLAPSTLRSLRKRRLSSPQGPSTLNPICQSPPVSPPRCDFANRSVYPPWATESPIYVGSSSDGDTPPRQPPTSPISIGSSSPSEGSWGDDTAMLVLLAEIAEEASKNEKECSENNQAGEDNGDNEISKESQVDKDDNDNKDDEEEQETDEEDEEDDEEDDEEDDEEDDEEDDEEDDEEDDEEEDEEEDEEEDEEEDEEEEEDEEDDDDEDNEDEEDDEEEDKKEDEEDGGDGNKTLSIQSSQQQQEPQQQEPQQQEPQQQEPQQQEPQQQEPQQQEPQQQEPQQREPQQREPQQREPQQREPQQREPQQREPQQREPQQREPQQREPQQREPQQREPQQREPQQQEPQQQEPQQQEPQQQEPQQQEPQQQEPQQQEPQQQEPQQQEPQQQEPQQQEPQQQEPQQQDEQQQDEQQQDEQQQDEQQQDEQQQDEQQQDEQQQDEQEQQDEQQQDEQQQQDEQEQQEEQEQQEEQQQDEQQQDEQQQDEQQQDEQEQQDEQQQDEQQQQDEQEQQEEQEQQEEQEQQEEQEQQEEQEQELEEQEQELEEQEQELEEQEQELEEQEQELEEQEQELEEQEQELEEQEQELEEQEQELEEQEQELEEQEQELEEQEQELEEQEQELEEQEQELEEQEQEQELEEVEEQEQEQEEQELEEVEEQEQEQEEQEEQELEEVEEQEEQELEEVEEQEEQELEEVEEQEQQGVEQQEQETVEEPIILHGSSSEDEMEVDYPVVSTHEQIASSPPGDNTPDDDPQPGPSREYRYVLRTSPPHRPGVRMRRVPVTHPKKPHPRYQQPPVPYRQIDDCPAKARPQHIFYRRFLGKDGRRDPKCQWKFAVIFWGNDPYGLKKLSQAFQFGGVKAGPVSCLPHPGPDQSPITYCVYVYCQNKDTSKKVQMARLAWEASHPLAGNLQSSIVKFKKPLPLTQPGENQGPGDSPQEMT
# UCH37 inh – human UCH37 deubiquitinating enzyme inhibition | Q9Y5K5 | purified proteasome/UCH37, Ub-AMC cleavage fluorescence | inhibition, % (no concentration beside the values) | 330,000 compounds, 0.33% hits;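 active = mean of two replicates above 20%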;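 note: 0% = compound-free wells with enzyme and 100% = wells lacking proteasome; stock transfer was 100 nL into about 20 µL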
#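 assay system = human UCH37 enzyme supplied as purified proteasome complex | amount = proteasome at 0.15 nM in the dispensed enzyme solution | schedule = 30 min compound-proteasome preincubation then 25 min substrate reaction, room temperature | measured by = fluorescence, ex 355 nm, em 460 nm | benchmarks = no-proteasome wells (full inhibition) and compound-free wells (no inhibition)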
# B2AR ag – agonists of human beta-2 adrenergic receptor inducing internalization; P07550; Am2.2-beta2AR cells, FAP receptor internalization, flow cytometry; reference of the scale not given here; response, % (concentration not given with the values); 340,000 compounds, 0.43% hits;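 active = response above a set limit, near 3 SD of response in nonfluorescent compounds, cut at about 42% in these data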;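 note: stock transfer was 100 nL into about 11 µL; a reference agonist was the positive control; negative values mostly stem from fluorescent compounds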
# Beta apoptosis – beta cell apoptosis inhibition; INS-1E cytokine-induced death, ATP luminescence, 48 h; percent of positive-control rescue, neutral wells zero; protection from apoptosis, % (test concentration not listed); 300,000 compounds, 0.8% hits;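 active = all replicates at 75% or more, or half of them and the mean; inconclusive = half reach 75% but not the mean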;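 note: 0% = cytokine-treated negative control wells and 100% = positive control rescue; higher means more ATP so stronger rescue from cytokine killing; wells of about 40 µL received 100 nL stock; the first replicate is given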
# Bfl-1 A1 inh – inhibitors of the anti-apoptotic protein A1, read as caspase activation; 330,000 compounds, 0.066% hits; AID 2462; MEF A1-2A-BIM cells, Caspase-Glo 3/7 luminescence, 3 h; percent of clofoctol response, vehicle zero; caspase activation, % (test concentration not listed);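 active = over half of replicate activation scores above 10%, or exactly half above 10 with the replicate mean above 10; inconclusive = replicate mean below 10 yet half the replicates above 10; inactive = over half of replicates below 10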;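 note: wells of about 30 µL received 50 nL stock; many hits fall short of the cut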
# RanGTP-Impb inh – disruptors of Ran-importin-beta complex formation – biochemical, FRET, CFP-Ran, YFP-importin-beta, homogeneous, primary screen; inhibition, % (test concentration not listed); 300,000 compounds, 1.1% hits; cell-free CFP-Ran/YFP-importin-beta FRET ratio; AID 2216;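 active = most replicates above 15%; inconclusive = exactly half above 15%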;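 note: 0% = DMSO wells and 100% = Ran loaded with GDP instead of GTP; wells of about 40 µL received 100 nL stock; the first replicate is given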
# T cruzi repl – blocks replication of Trypanosoma cruzi | T. cruzi beta-gal in NIH3T3, luminescence, 90 h | inhibition, % (no concentration beside the values) | 300,000 compounds, 1.4% hits;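 active = mean inhibition across valid replicates above about 55%, limit read from the data; inconclusive = mean below that limit but half or more replicates reach it; inactive = mean below it, under half of replicates reach it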;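 note: signal also drops with host cell toxicity which is not excluded here; 0% = plate median of DMSO wells and 100% = zero luminescence signal; higher percent means less beta-gal luminescence so fewer parasites; stock transfer was 50 nL into about 50 µL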
# Calb FLC – C. albicans growth modulation with fluconazole. AID 1979. C. albicans CaCi-2 (fluconazole-resistant clinical isolate) + fluconazole, Alamar Blue growth, 48 h. 300,000 compounds, 0.57% hits. growth inhibition, % (test concentration not listed);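 active = most replicates above 75%; inconclusive = exactly half above 75%; inactive = most below 75%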;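 note: all wells also contain fluconazole at 8 µg/ml as a sub-toxic cotreatment; 0% = median of DMSO wells and 100% = median of geldanamycin control wells; wells of about 8 µL received 7.5 nL stock; the first replicate is given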
# * marks the source's active call; other numbers are inactive results; u = inconclusive; x = not tested or not shown.
SMILES,LANA-H2A inh,UCH37 inh,B2AR ag,Beta apoptosis,Bfl-1 A1 inh,RanGTP-Impb inh,T cruzi repl,Calb FLC
CC1Cc2ccccc2N1S(=O)(=O)c1cccc(C(=O)N2CC(=O)Nc3ccccc32)c1 (stereo not given),1.3,5.7,-3,5,-0.2,0.7,5,5
CCCCCOC(=O)Cn1c(N2CCCCCC2)nc2c1c(=O)[nH]c(=O)n2C,-3.0,-2.2,-8,0,0.3,-1.7,16,u
CC1(C)C2CCC1(C)C1(C2)NC(=O)c2ccccc2O1 (stereo not given),x,1.4,2,-3,-1.1,-1.2,22,-3
Cc1cccc(Nc2ncccc2C(=O)NCc2cccs2)c1C,2.2,5.1,35,-3,0.4,-0.6,9,-7
Cc1ccc2nc(SCC(=O)N(CC(C)C)c3c(N)n(Cc4ccccc4)c(=O)[nH]c3=O)[nH]c2c1,2.8,2.1,7,-7,0.1,1.2,-9,-4
O=C(NC1=NCCS1)c1cccc(F)c1,5.2,1.5,-4,2,-1.3,3.1,5,8
CC(C)c1ccc(/C=C(\c2nc3ccccc3[nH]2)S(=O)(=O)c2ccccc2)cc1,-0.9,4.0,42*,102*,-1.5,-1.9,49,-2
CCn1c(SCC(=O)c2ccccc2)nc2sc3c(c2c1=O)CCN(C)C3,3.1,-41,4,-14,1.1,8.5,64*,5
O=C1C=C(c2ccc(O)cc2)C[C@@H](c2ccc(Cl)cc2)C1,2.3,2.3,-6,0,-0.1,x,x,x
O=C(CSc1nc2[nH]c(=O)cc(O)c2s1)Nc1cccc(Br)c1,x,4.7,-5,6,0.5,x,x,x
O=C(O)CNC(=O)C1CCCN1C(=O)CNC(=O)OCc1ccccc1 (stereo not given),-3.0,5.3,-15,3,1.0,0.2,-7,1
CCOc1ccccc1NC(=S)Nc1ccccc1F,-3.6,-6.6,-1,-4,0.0,-4.8,-6,-1
COc1cc(C2C3C(C)N(C)C(=O)N(C)C3N(C)C(=O)N2C)ccc1O (stereo not given),-2.8,1.8,1,-6,0.0,-2.0,-9,-3
Cc1cc(C)cc(C(=O)NCC(=O)N2CCC3(CC2)NCCc2[nH]cnc23)c1,2.8,4.4,3,4,-0.3,-0.5,-11,0
CCSc1nnc(COc2ccccc2)n1CC,2.3,5.0,9,-1,0.2,1.3,-6,-4
O=C(N1CCOCC1)N1CCCC(c2nc(-c3cccs3)no2)C1 (stereo not given),-3.0,0.0,-2,-3,0.8,0.7,5,u
OCCn1c(CSc2nc3ccccc3n2CCO)nc2ccccc21,-4.9,-14,-3,-1,0.7,2.2,-12,-2
O=C1CCC(C(=O)N2CCN(c3cnccn3)CC2)CN1CCc1cccc(F)c1 (stereo not given),-3.5,-32,-6,-5,0.0,2.7,7,0
CCC(C)NC(=O)c1ccccc1NC(=O)Nc1ccccc1 (stereo not given),16*,-1.9,2,-1,-1.2,u,8,-3
CCOC(=O)C1(CC2CCCCO2)CCN(C(=O)NCc2ccccc2)CC1 (stereo not given),2.0,2.8,5,0,-0.3,1.4,-19,9
O=C(CN1C(=O)CNC1=O)Nc1cccc(C(F)(F)F)c1,0.9,4.7,-4,-11,0.7,2.7,1,3
Cc1csc2ncnc(NCCc3ccccn3)c12,-0.2,-2.0,-8,79*,0.0,3.7,-26,98*
COc1ccc(OCC(O)CNC(=O)Nc2cc(F)ccc2C)cc1 (stereo not given),0.9,4.4,7,2,0.0,-3.4,x,12
Cc1ccc(C)c2[nH]c(=O)c(CN(Cc3ccc4c(c3)OCO4)Cc3nnnn3Cc3ccco3)cc12,-16,-3.7,4,0,0.5,-0.9,29,0
O=C(c1cccc([N+](=O)[O-])c1)N1CCCC(C(=O)N2CCCCC2)C1 (stereo not given),-5.6,1.6,-2,x,-0.4,-0.5,-7,2
CCc1nc(N)c(C#N)c(-c2ccc(OC)c(OC)c2)c1C,2.4,-25,7,-3,0.9,0.6,6,12
O=C(OCC(=O)N1CCCc2ccccc21)c1c(F)cccc1F,0.8,2.5,-2,-4,-0.3,2.9,-8,-3
COC(=O)c1ccc(N2C(=O)Nc3ccccc3N2O)cc1,-0.5,-0.7,5,-7,1.4,-2.8,-10,11
COc1ccc(-n2c(SCc3ccc([N+](=O)[O-])cc3)nnc2-c2ccccc2)cc1,-0.1,1.7,-53,-11,0.5,-0.1,38,7
COc1ccccc1NC(=O)CNC(=O)CC12CC3CC(CC(C3)C1)C2,2.8,5.2,-7,-11,0.4,x,x,x
O=C(NCCc1ccccc1)C1CC(=O)N(C2CCCCCC2)C1 (stereo not given),5.1,3.3,-3,-6,0.6,-1.3,-1,-4
Cc1[nH][nH]c(=O)c1C(c1c(C)[nH][nH]c1=O)c1cn(Cc2ccccc2Cl)c2ccccc12,x,17,30,x,x,-7.6,-4,-29
Cc1nc2nc(-c3cccnc3)nn2c(C)c1Cl,-4.9,3.8,-5,3,-2.9,-1.4,-7,14
Cc1cc([N+](=O)[O-])nn1CCCC(=O)O,-8.2,4.5,-4,-6,-0.1,-0.6,-6,14
O=C(Nc1cccc(F)c1)c1c(F)c(F)c(F)c(F)c1F,-2.7,2.2,-11,3,-0.7,-0.3,3,2
Cc1ccc(N2C(=O)C(Cc3ccccc3)NC2=S)cc1 (stereo not given),6.3,0.9,1,-6,-0.3,3.8,-7,13

# An excerpt from above in order of their number in RanGTP-Impb inh, lowest first.
mol,LANA-H2A inh,UCH37 inh,B2AR ag,RanGTP-Impb inh
Cc1ccc(C)c2[nH]c(=O)c(CN(Cc3ccc4c(c3)OCO4)Cc3nnnn3Cc3ccco3)cc12,-16,-3.7,4,-0.9
Cc1cc([N+](=O)[O-])nn1CCCC(=O)O,-8.2,4.5,-4,-0.6
Cc1csc2ncnc(NCCc3ccccn3)c12,-0.2,-2.0,-8,3.7

# Carrying on:
SMILES,LANA-H2A inh,UCH37 inh,B2AR ag,Beta apoptosis,Bfl-1 A1 inh,RanGTP-Impb inh,T cruzi repl,Calb FLC
Cc1ccc(Cn2c(=O)n(Cc3ccco3)c(=O)c3ccccc32)cc1,-0.5,3.5,-5,2,-0.8,5.6,9,-2
CC(=O)CC(=O)Nc1ncc(C(F)(F)F)cc1Cl,6.8,-0.3,4,-1,-0.8,1.9,-13,-6
O=C1CCCC2=C1C(c1ccccc1)CC(=O)N2c1ccccc1 (stereo not given),-1.1,2.9,2,-2,-0.6,-0.9,-7,-4
C/C(=N\NC(=O)COc1ccc(C(C)(C)C)cc1)c1ccc(OC(F)F)cc1,x,x,1,-10,1.6,-1.5,-12,-10
O=C(Cn1ncc2c3ccccc3n(Cc3ccccc3)c2c1=O)NCc1ccccn1,-1.1,-28,-25,-3,0.0,-1.1,10,4
C=CCn1c(SCC(=O)N2CCc3ccccc3C2)nc2sc(C)cc2c1=O,-1.8,1.2,1,-10,0.5,1.1,19,0
NNc1nc(Nc2ccccc2)nc(N2CCCCC2)n1,-1.9,4.5,-9,6,0.6,3.7,-13,35
N#Cc1ccc[n+](CC(=O)c2ccc(Cl)cc2)c1,-4.1,3.3,2,22,-1.1,3.8,-8,10
COC(=O)C1=C(NC(=O)c2ccc(C)cc2)CCS1,-4.9,-17,0,8,-0.4,u,0,8
O=C(CCN1CCc2ccccc2CC1)c1ccc2c(c1)OCCO2,-4.1,4.3,2,-30,0.8,-3.4,5,-8
Cc1ccc(NC(=O)CSc2ccccc2NC(=O)c2ccccc2)cc1Cl,-0.1,6.5,0,9,u,-0.8,19,1
Cc1cc(/C=C(\C#N)C(=O)O)c(C)n1CC(C)C,-0.1,20,2,7,0.0,-1.1,18,-11
COc1ccc(C(=O)Nc2ccc(S(=O)(=O)Nc3cc(C)nc(C)n3)cc2)c(OC)c1,-8.3,5.8,3,-1,2.0,-0.4,8,-2
Cc1cc(C)c(-n2c(C)cc(/C=C3/NC(=O)NC3=O)c2C)c(C)c1,2.6,1.8,x,1,0.2,3.7,35,4
CCN(CC(=O)NC1CCCC1)S(=O)(=O)c1ccc(C)cc1,-0.2,-0.1,-8,-3,0.8,1.0,-8,-7
CC(C)Oc1cc2oc(=O)c3c(c2cc1Cl)CCC3,2.0,-39,-8,2,-0.1,-4.9,-3,-7
COc1ccc(/C=N/N=C2/NC(=O)C(c3ccccc3)(c3ccccc3)S2)cc1,-0.9,x,-1,5,0.1,-2.4,-25,-4
CC(O)CNc1nc2c(c(=O)n(Cc3cccc(Cl)c3)c(=O)n2C)n1C (stereo not given),0.3,-0.5,0,-6,1.0,4.4,-5,1
CCOc1ccc(CCNC(=O)c2cc(C)on2)cc1OCC,3.4,1.1,4,-5,-1.0,-1.9,-8,-1
Cc1ccc(C(=O)NC2CCS(=O)(=O)C2)cc1S(=O)(=O)N1CCCCC1 (stereo not given),3.2,5.8,1,-1,0.8,-1.2,-21,-4
CCCNc1c(NS(=O)(=O)c2ccc(OC)c(OC)c2)c(=O)oc2ccccc12,x,4.4,-11,x,x,6.9,12,-3
Cc1cc(C)n(C(=O)Cn2nc([N+](=O)[O-])cc2C)n1,0.8,1.8,-2,0,0.6,2.7,-14,26
CCOC(=O)C1=C(N)n2c(s/c(=C/c3ccccc3)c2=O)=C(C(=O)OCC)C1c1ccccc1 (stereo not given),0.6,x,x,4,-0.6,2.8,-20,4
O=C1CC(N2CCN(c3ccccc3)CC2)C(=O)N1c1cccc(Cl)c1 (stereo not given),-2.1,3.4,1,-2,-0.2,u,-12,-12
CC(=O)O[C@H]1CC[C@@]2(C)C(=CC[C@H]3[C@@H]4CC[C@H](C(C)=O)[C@@]4(C)CC[C@@H]32)C1,0.7,5.0,-7,-7,2.2,-2.7,-2,x
COP(=O)(OC)c1nc(-c2ccc([N+](=O)[O-])cc2)oc1N1CCCCC1,0.9,4.9,-3,-1,0.4,-12,5,8
CC1(C)CC(NC(=O)c2cccc3ccccc23)CC(C)(C)N1,-2.9,-0.2,2,3,-0.7,7.4,-29,-4
CCCC(NC(=S)NCC1CCCO1)C12CC3CC(CC(C3)C1)C2 (stereo not given),-4.2,-1.0,-3,26,-0.7,-2.2,53,-25
OCCN1CCN(CC(O)COc2ccc(C34CC5CC(CC(C5)C3)C4)cc2)CC1 (stereo not given),-2.4,x,61*,47,0.6,-1.9,33,25
O=C(/C(=C/O)N=Nc1ccc(Cl)cc1)c1ccncc1,-0.2,12,38,15,-0.3,-1.9,9,-24
CCCCCNS(=O)(=O)c1cc2c3c(c1)CCC(=O)N3CCC2,5.0,1.1,4,4,0.6,-2.4,-25,26
c1cc(CN2CCCCC2)cc(OCCCNc2nc3ccccc3s2)c1,-2.7,2.0,10,4,0.9,3.4,15,-17
Cc1nc(NC(=O)/C=C/c2ccccc2)sc1C(=O)Nc1ccc(Cl)cc1,2.8,-82,12,3,0.3,-1.0,45,27
COc1ccc(S(=O)(=O)N2CCCCCC2)cc1C(=O)Nc1cccc(C)n1,-4.7,3.9,6,-3,-1.2,-4.5,22,1
CCc1ccc(/C=C2\Oc3c(ccc(O)c3CN3CCN(C)CC3)C2=O)cc1,4.4,-97,8,-2,0.4,u,-6,7
CC(=O)c1c(C(C)=O)c(C)n(-c2ccc(N)c(C)c2)c1C,1.2,3.9,5,-1,0.1,4.0,-5,3
Cc1cc(Cl)ccc1OCCCC(=O)NCC1CCCO1 (stereo not given),-5.0,4.7,-1,-2,1.8,0.6,2,-1
